Source: PubChem (several laboratories)
YopH PTP inh: blocks Yersinia enterocolitica YopH tyrosine phosphatase | AID 898 | inhibition, %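 (about 10 µM by stock and volumes)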 | fluorescence Ex485/Em525 | 0.16% of 140,000 active;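 active means inhibition of 50% or more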;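 further: controls were vehicle for no effect and minimum signal wells for full effect; inactives centre near -20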
RecA splice inh: blocks M. tuberculosis RecA intein splicing. P9WHJ3. cell-free RecA intein splicing, fluorescence. inhibition, %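 (about 9 µM by stock and volumes)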. 0.75% of 290,000 active. AID 2221; in the data active means inhibition above about 30%; inconclusive means no clear call, values can overlap the other calls;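 further: 0% = vehicle wells and 100% = reference inhibitor control wells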
Target sequence (P9WHJ3 whole entry, looked up, canonical isoform): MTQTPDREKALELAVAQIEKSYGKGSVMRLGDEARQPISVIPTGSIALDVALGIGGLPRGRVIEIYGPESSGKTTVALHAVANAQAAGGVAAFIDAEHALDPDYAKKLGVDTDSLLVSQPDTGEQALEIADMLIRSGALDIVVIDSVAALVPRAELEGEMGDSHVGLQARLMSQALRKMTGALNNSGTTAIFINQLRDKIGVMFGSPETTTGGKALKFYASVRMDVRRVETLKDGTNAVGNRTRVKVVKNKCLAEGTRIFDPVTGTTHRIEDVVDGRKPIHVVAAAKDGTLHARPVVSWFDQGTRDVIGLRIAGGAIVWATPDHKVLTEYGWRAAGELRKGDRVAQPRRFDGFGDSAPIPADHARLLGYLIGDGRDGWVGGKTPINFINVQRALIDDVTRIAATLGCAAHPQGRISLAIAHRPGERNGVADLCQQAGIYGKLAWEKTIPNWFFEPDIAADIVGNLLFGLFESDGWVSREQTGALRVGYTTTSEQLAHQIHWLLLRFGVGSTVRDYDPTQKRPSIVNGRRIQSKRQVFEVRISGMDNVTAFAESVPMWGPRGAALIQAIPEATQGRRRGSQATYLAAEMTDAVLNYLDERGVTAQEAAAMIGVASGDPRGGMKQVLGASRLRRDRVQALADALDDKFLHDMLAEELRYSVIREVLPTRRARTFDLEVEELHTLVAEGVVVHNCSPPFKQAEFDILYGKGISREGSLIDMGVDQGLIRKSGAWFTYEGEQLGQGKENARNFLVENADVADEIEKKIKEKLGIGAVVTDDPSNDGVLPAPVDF
Arbovirus inh: antivirals against arbovirus infection; arbovirus infection cell-based antiviral screen; inhibition, % at 10 µM; 0.37% of 200,000 active; AID 1251;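 active means inhibition from about 30%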;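 further: bluetongue infection of BSR cells; cell survival read as ATP light after 72 h; 0% = infected wells without compound and 100% = uninfected wells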
Mtb betalactam: beta-lactam sensitization of Mtb H37Rv; 0.27% of 330,000 active; inhibition, % at 25 µM; M. tuberculosis H37Rv growth with meropenem, percent inhibition; hits of this screen are not shown here;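 active means about 74% or more and at least 40 points above the plate without the antibiotic, then above 30% in a dose series; inconclusive means first-round hits that could not be retested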;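 further: growth measured after seven days incubation then overnight dye step; 0% = bacteria only wells and 100% = bacteria with antibiotic; twin plates without the antibiotic show which effects depend on it; some results filed as inactive read as strong as hits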
Mtb H37Rv: M. tuberculosis H37Rv growth inhibitors, H37Rv strain (AID 1626); 0.95% of 220,000 active; inhibition, % at 10 µM, or IC50 in µM where a hit was titrated; M. tuberculosis H37Rv growth inhibition; higher % means a stronger effect;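 active means confirmed in a dose series; inconclusive means inhibition above 80% but not taken into the dose series; inactive means below 80% or under 30% at every dose of the series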;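 further: bacteria incubated seven days before Alamar blue readout; 0% = bacteria only wells and 100% = bacteria with antibiotic wells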
Arbovirus inh repeat: further read-out of Arbovirus inh, marked with its call; inhibition, %; measured here: 10K subset replicate screen; many hits read low in the repeat;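 first of two repeat runs on a subset; 0% = infected and 100% = uninfected wells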
Active calls of the source: *; ? = inconclusive; . = no result given. Some of the compounds tested; rates above refer to the full screens.

SMILES	YopH PTP inh	RecA splice inh	Arbovirus inh	Mtb betalactam	Mtb H37Rv	others
COc1ccccc1C(=O)Nc1ccc(N2CCN(S(C)(=O)=O)CC2)cc1	6	-2.5	3	18	-8%
Cc1c(NC(=O)C(C)OC(=O)/C=C/c2ccc(OC(F)F)cc2)c(=O)n(-c2ccccc2)n1C (configuration not stated)	.	-0.4	.	-8	.
Cc1nn(CCCC(=O)NCc2ccc(Cl)cc2)c(C)c1[N+](=O)[O-]	-29	-0.9	-3	-8	-12%
Cn1c(SCC(=O)Nc2ccc3c(c2)n(C)c(=O)n3C)nnc1-c1ccncc1	.	-1.1	.	-6	.
CC(C)(C)C1(C)OC(=O)C(=Cc2ccc(OCC(=O)Nc3ccccc3)cc2)C(=O)O1 (configuration not stated)	-31	1.2	-1	-6	-10%
O=C(NCCN1CCOCC1)c1ccc(CS(=O)(=O)c2ccc(Cl)cc2)o1	5	-2.2	-1	-2	-3%
CCC1=NN2C(=N)/C(=C\c3ccc(OCCOc4ccc(NC(C)=O)cc4)c(OC)c3)C(=O)N=C2S1	.	-3.5	.	-1	.
O=C(N/N=C/c1ccccn1)c1cc(-c2ccccc2Cl)n[nH]1	.	3.2	-16	64	58%
COc1cc2c(cc1NC(=O)Cn1cnc3c1c(=O)n(C)c(=O)n3C)oc1ccccc12	-35	-1.4	-10	.	-5%
COc1ccc(CC2C(=O)N(C)C(=O)N(C)C2=O)c(OC)c1	-22	-2.0	10	-3	.
CCOc1ccc(NC(=O)C2CCCCN2S(=O)(=O)c2ccccc2)cc1 (configuration not stated)	-25	2.7	8	-2	-8%
CC(C)c1ccc(N(C)C(=O)Cc2c(C(=O)O)n(C)c3ccccc23)cc1	.	0.2	.	0	.
CCN(CC)S(=O)(=O)c1ccc(N2CCN(CCO)CC2)nc1	-28	-1.5	-1	-2	1%
Nc1nc(-c2cccnc2)nn1C(=O)Cc1ccccc1	-24	1.1	4	-11	-4%
CCS(=O)(=O)N1CCC(C(=O)NCc2ccccc2OC)CC1	-23	-1.7	1	-9	-10%
CC(=O)Cc1nsc(Nc2ccc3c(c2)OCCO3)n1	-26	1.2	7	10	6%
Cc1cc2c(ncn2C)c(NS(=O)(=O)c2cc(Cl)ccc2Cl)c1C	-7	1.5	-5	8	-12%
Fc1ccccc1-c1nc(-c2ccccc2)no1	6	0.5	-2	0	-2%
COc1cccc(C(=O)Nc2nc3c(s2)CN(C)CC3)c1	-161	-6.3	4	-11	-1%
O=c1oc(-c2ccc(Br)cc2)nc2ccccc12	.	13	.	18	.
COc1cc(NC(=O)c2cccs2)c(C(=O)OCC(=O)NCc2ccco2)cc1OC	-31	2.1	7	98	72%
Cc1ccc(CNC(=O)CSc2nc3ccsc3c(=O)n2NC(=O)c2ccccc2)cc1	-10	1.5	-1	-1	0%
NC(=O)Nn1c(CCC(=O)O)ccc1-c1ccc(F)cc1	-13	2.2	3	6	-4%
CCSc1nc2ccc(OC)cc2cc1C#N	-26	-1.9	-2	-1	-1%
CCN(CC)C(=O)c1[nH]cnc1C(=O)NCC(=O)OCc1ccccc1	.	0.0	.	-12	.
(next part)
SMILES	YopH PTP inh	RecA splice inh	Arbovirus inh	Mtb betalactam	Mtb H37Rv	others
Cc1cccc(C)c1C(=NCCCN(C)C)c1ccccc1	-13	-0.1	-3	-5	-2%
CN1C(C(=O)NCc2ccccc2)CC2Cn3c(nc4cc(Cl)c(Cl)cc43)C21 (configuration not stated)	.	3.9	.	-3	1%
Cc1ccc2nc(-c3ccncc3)c(Nc3ccccc3)n2c1	-43	-1.3	-2	-2	2%
CCCCc1ccc(NC(=O)C(=O)NCCN2CCN(Cc3ccc([N+](=O)[O-])cc3)CC2)cc1	.	.	-6	4	1%
CC(=O)/C(N=Nc1cc(C)ccc1O)=C(\C)O	.	-6.6	-1	0	7%
O=C1OCCC1Sc1nnc(-c2ccccc2Br)n1Cc1ccccc1 (configuration not stated)	-23	0.9	4	-6	-6%
O=C(OCc1nnc(-c2ccccc2)o1)C1CC(=O)N(Cc2ccco2)C1 (configuration not stated)	.	-2.6	10	6	8%
CSc1ccc(CNCC(O)c2ccccc2)cc1 (configuration not stated)	.	-0.9	1	-4	8%
Cc1ccc(N2CC(C(=O)Nc3c4c(nn3C(C)(C)C)CS(=O)(=O)C4)CC2=O)cc1 (configuration not stated)	.	-1.6	.	-5	.
CCOc1ccc(CNS(=O)(=O)c2cc(-c3cc(C)no3)ccc2OC)cc1OC	.	-0.9	.	3	.
c1ccc(-c2cc(N3CCCCC3)ncn2)cc1	0	1.9	-3	-11	-3%
COCCn1cnnc1SCC(=O)Nc1ccc(Br)cc1F	.	0.6	15	-9	9%
c1ccc(-n2ncc3c(N4CCN(CCOc5cccc6ccccc56)CC4)ncnc32)cc1	-11	0.2	11	98	55%
CCCCNc1ccc(C(=O)Nc2cccc(C)n2)cc1[N+](=O)[O-]	-21	0.4	-1	1	8%
Cc1ccc(NC(=O)CN(C)S(=O)(=O)c2cccc3nsnc23)cc1Cl	17	3.6	12	-7	4%
COc1ccccc1C(=O)NCCC(=O)N(C)CC(=O)Nc1ccccc1Br	.	-0.5	.	-11	.
CC(C)(C)OC(=O)NCCc1nnc(SCc2ccc(Cl)cc2)o1	-9	1.1	-5	11	9%
Cc1ccc(CSCCNS(=O)(=O)c2ccccc2)cc1	-16	2.6	8	8	2%
O=C(O)c1cc(-c2ccco2)nc2cc3ccccc3cc12	.	-0.9	.	-2	2%
Cc1cc2nc(CS)[nH]c2cc1C	.	-7.7	.	0	.
CS(=O)(=O)N1CCN(c2ccc([N+](=O)[O-])c(NCc3ccccc3)c2)CC1	-31	-3.7	-8	-7	.
O=C(NCCCN1CCOCC1)c1ccc2c(c1)N(Cc1cccc(Cl)c1)C(=O)c1ccccc1S2=O (configuration not stated)	.	-2.4	.	5	.
CC1CCN(C(=O)CSc2nnc(Cc3cccn3C)n2-c2ccc(F)cc2)CC1	-31	2.5	-3	-6	-8%	Arbovirus inh repeat=4
O=C(NCC(=O)N1CCN(S(=O)(=O)c2ccccc2F)CC1)c1ccc(Br)o1	.	-1.8	.	0	.
COC(=O)CN1C(=O)C2(C(C#N)=C(N)Oc3ccccc32)C2=C1CC(C)(C)CC2=O (configuration not stated)	-5	-3.4	-7	5	-8%
(listing goes on)
SMILES	YopH PTP inh	RecA splice inh	Arbovirus inh	Mtb betalactam	Mtb H37Rv	others
Cc1nnc(SCC(=O)NC2CCC(C)CC2)s1 (configuration not stated)	.	0.8	.	-6	.
CCOC(=O)c1sc(=S)n(-c2ccc(OC)cc2)c1N	.	-1.2	.	0	-5%
Cc1cc(C(=O)Nc2ccc(Nc3ccccc3)cc2)ccc1[N+](=O)[O-]	.	5.5	.	0	.
Clc1ccc(-c2nc(NCCN3CCOCC3)c3ccccc3n2)cc1	-36	1.7	2	69	11%
COc1ccc(CN2CCCC(C(=O)c3ccc(Cl)cc3)C2)c(OC)c1 (configuration not stated)	.	0.1	.	9	.
Cc1ccc(NC(=O)CN2C(=O)CCSc3ccc(S(=O)(=O)N4CCCC4)cc32)cc1	.	0.0	.	-2	.
CCC(=O)c1ccc(OCC(=O)OCC(=O)Nc2c(C)n(C)n(-c3ccccc3)c2=O)cc1	.	0.8	.	-12	.
CCOc1cc(/C=C2/N=C(C)C(C(=O)OC)=C2O)ccc1O	.	-1.5	0	8	-3%
COCCN1C(=O)c2oc3c(C)cc(C)cc3c(=O)c2C1c1cccc(O)c1 (configuration not stated)	-26	1.1	1	1	-2%
O=C(Cn1c(=S)[nH]c2ccccc2c1=O)N1CCN(c2ccc(F)cc2)CC1	.	-2.0	1	-9	-11%
COc1ccccc1-n1nnnc1SCC(=O)NC1CC1	.	-0.3	.	0	.
Cn1c(=O)c2c(SCC(=O)N3CCOCC3)nc(-c3ccccc3Cl)nc2n(C)c1=O	.	-0.1	.	-4	.
COC(=O)c1ccc(N(C(=O)CNC(=O)c2ccco2)C(C(=O)NC2CCCC2)c2ccco2)cc1 (configuration not stated)	6	1.6	7	-5	2%
CC(C)C(=O)Nc1ccc(Sc2ccc(F)cc2)cc1	-35	0.5	3	22	4%
COc1ccc(-c2csc3ncnc(N4CCN(c5ccccc5)CC4)c23)cc1	.	-0.2	.	1	.
CCC(Oc1ccccc1C)C(=O)Nc1ccc(S(=O)(=O)Nc2cc(C)on2)cc1 (configuration not stated)	.	1.7	.	-4	.
COc1ccc(C(CC(=O)O)NC(=O)c2sc3ccccc3c2Cl)cc1 (configuration not stated)	-24	-0.7	6	3	3%
COc1ccc(/C=C2\SC(=O)N(CC(=O)Nc3cccc(C)c3)C2=O)cc1O	.	-0.5	.	4	.
COc1ccc(-c2noc(-c3ccccc3C(=O)NCc3ccco3)n2)cc1OC	-13	.	-12	72	.
CCOc1ccc(-n2c(O)c(/C=N/c3ccnn3Cc3ccncc3)c3ccccc3c2=O)cc1	.	-9.6	-6	-1	6%
Cn1c(=O)c2c(nc(N3CCN(Cc4ccccc4)CC3)n2CC(=O)c2ccccc2)n(C)c1=O	-1	1.6	.	1	7%
O=C(C1CCC1)N1CCN(c2ccccc2)CC1	.	1.2	.	-2	.
CCN(CCNC(=O)C1CCN(Cc2nc(-c3cccc(Cl)c3)oc2C)CC1)c1ccccc1	-20	3.5	-35	100	8%
S=c1[nH]nc(-c2ccco2)n1/N=C/c1c(Cl)cccc1Cl	.	-1.9	.	6	-13%
Cc1cc(Cl)ccc1NNC(N)=S	.	-1.1	.	87	41%

Reprinted from the part before: 6 entries, followed by the next part.
SMILES	YopH PTP inh	RecA splice inh	Arbovirus inh	Mtb betalactam	Mtb H37Rv	others
CCOc1ccc(-n2c(O)c(/C=N/c3ccnn3Cc3ccncc3)c3ccccc3c2=O)cc1	.	-9.6	-6	-1	6%
Cn1c(=O)c2c(nc(N3CCN(Cc4ccccc4)CC3)n2CC(=O)c2ccccc2)n(C)c1=O	-1	1.6	.	1	7%
O=C(C1CCC1)N1CCN(c2ccccc2)CC1	.	1.2	.	-2	.
CCN(CCNC(=O)C1CCN(Cc2nc(-c3cccc(Cl)c3)oc2C)CC1)c1ccccc1	-20	3.5	-35	100	8%
S=c1[nH]nc(-c2ccco2)n1/N=C/c1c(Cl)cccc1Cl	.	-1.9	.	6	-13%
Cc1cc(Cl)ccc1NNC(N)=S	.	-1.1	.	87	41%
COc1ccc(S(=O)(=O)N2CCC(C(=O)N(CC(C)C)C3CCS(=O)(=O)C3)CC2)cc1OC (configuration not stated)	.	1.9	.	-7	.
C=CCNC(=O)Nc1cc(Cl)ccc1OC	.	-3.0	-1	4	-3%
COc1ccc(/C=C/C(=O)Nc2ccc(-n3nncc3-c3ccc(OC)c(OC)c3)cc2)cc1OC	-28	4.8	-7	-2	38%
O=C(NCc1cccc(C(F)(F)F)c1)c1ccc[nH]1	.	-0.6	.	2	.
CCOc1ccc(NC(=O)CCc2ccc(C)o2)cc1	.	2.7	.	94	.
COc1cccc(C(=O)Oc2ccc3c(C)cc(=O)oc3c2C(C)=O)c1	-23	1.9	2	?	0%
O=c1c2ccccc2nc(N2CCCC2)n1-c1ccccc1	4	-3.9	-2	-1	4%
COc1ccc(C(=O)NC(=S)Nc2nc(C)cc(C)n2)cc1Br	.	-1.0	.	-5	-7%
COc1cccc(N2CCN(C(=O)c3[nH]c(C)c(C(C)=O)c3C)CC2)c1	-22	0.8	-27	-2	4%
CCCn1cc(CN2CCC(n3nccc3NC(=O)C(OC)c3ccccc3)CC2)c(C)n1 (configuration not stated)	.	0.3	.	-6	.
COc1cc(C2C(C(=O)c3ccc(C)o3)=C(O)C(=O)N2CCc2ccccc2)ccc1O (configuration not stated)	-42	2.1	6	1	-5%
O=C(c1ccccc1)C1C(=O)c2ccccc2C1=O	2	6.4	-14	.	-2%
CCN(C(=O)CN1CCN(c2ccccc2OC)CC1)c1c(N)n(Cc2ccccc2)c(=O)[nH]c1=O	20	-0.9	9	1	0%
COc1ccc(/C=C/C(=O)c2c(O)cc(C)oc2=O)c(OC)c1	-45	-2.9	-5	93	3%
NC(=O)NOCc1ccc(F)cc1Cl	.	.	-2	-6	3%
Cc1cc[n+](C2=C([O-])c3ccccc3C(=O)/C2=N\S(=O)(=O)c2cccs2)cc1C	33	32*	-30	-3	2%
Cc1ccc2c(c1)N(CC(=O)NC1CCC(C)CC1)C(=O)c1cccnc1O2 (configuration not stated)	.	2.8	.	?	.
COc1ccc(CCCc2nnc(SCC(=O)Nc3cc(C)ccc3C)o2)cc1	0	-0.4	3	8	17%
Cc1ccc(NC(=O)c2cc3nc(C)cc(C)n3n2)cc1	-21	-0.2	-2	4	0%
